# Screening data as filed in PubChem.
# YB-1 expression: YB-1 expression inhibition. delta delta Cp (YB-1 minus CDIP) (no concentration beside the values). 30,000 tested, 0.37% active. AID 434959. U2OS, qRT-PCR YB-1 vs CDIP delta delta Cp, 16 h; hits give high values; zero = DMSO, each unit about twofold;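 active = delta delta Cp rounded down to an integer at or above 3, about 3 SD of DMSO wells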;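 note: higher means less YB-1 transcript or more CDIP transcript relative to DMSO; stock transfer was 100 nL into about 100 µL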
# An asterisk follows results filed as active. The list is partial (hit frequency here may not be typical).
SMILES,YB-1 expression
C[C@H]1CN([C@@H](C)CO)C(=O)CCCn2nncc2CO[C@H]1CN(C)C(=O)Nc1ccc(-c2cccs2)cc1,-0.0451
Cc1ccccc1CN(C)C[C@H]1OCc2cnnn2CCCC(=O)N([C@H](C)CO)C[C@@H]1C,-0.173
COC(=O)C(CC#Cc1ccc2c(c1)[C@]1(C(=O)N2)[C@H](C(=O)O)[C@H]2C(=O)O[C@H](c3ccccc3)[C@H](c3ccccc3)N2[C@@H]1c1ccc(OCCO)cc1)C(=O)OC,-0.0186
C[C@H]1CN([C@@H](C)CO)C(=O)CCCn2cc(nn2)CO[C@@H]1CN(C)C(=O)Nc1ccnc(N2CCOCC2)c1,-0.0667
O=C(NO)c1ccc(C(=O)N/N=C/c2ccc(Br)s2)cc1,-0.0582
CC(C)S(=O)(=O)NC[C@@H]1CCCN(Cc2cccc(OCCO)c2)C1,0.96
C[C@@H]1CN([C@@H](C)CO)C(=O)CCCn2cc(nn2)CO[C@H]1CN(C)C(=O)Nc1cccc2ccccc12,-0.289
O=C1C[C@@](C(=O)NCCN2CCOCC2)(c2ccc([N+](=O)[O-])cc2)[C@@H](c2ccc(CO)cc2)N1CC12CC3CC(CC(C3)C1)C2,-0.178
O=C(O)CCCCCCC(=O)N/N=C/c1ccco1,-0.0772
COc1ccc(S(=O)(=O)N[C@H]2CCN(Cc3cccc(OCCO)c3)C2)cc1,-0.136
COC(=O)CCCCCCC(=O)N/N=C/c1ccc(OC)cc1OC,-0.14
C[C@@H]1CN([C@H](C)CO)C(=O)CCCn2nncc2CO[C@H]1CN(C)C(=O)Nc1ccc(-c2cccs2)cc1,-0.0627
O=C(NO)c1cccc(C(=O)N/N=C/c2cc(F)ccc2O)c1,-0.203
C[C@@H]1CN([C@H](C)CO)C(=O)CCCn2cc(nn2)CO[C@@H]1CN(C)C(=O)Oc1ccccc1,-0.408
C=CCN1C(=O)[C@@]2(O[C@@H](CCn3cc(CCO)nn3)[C@H]([Si](C)(C)c3ccc(OC)cc3)[C@H]2C)c2cc(NC(=O)c3ccc(OC)cc3)ccc21,0.143
COCCOC(=O)N1C(=O)[C@@]2(c3cc(C#CC4(O)CCCCCC4)ccc31)[C@H](c1ccc(OCCO)cc1)N1[C@H](c3ccccc3)[C@H](c3ccccc3)OC(=O)[C@H]1[C@@H]2C(N)=O,0.196
CN(C)CCCOc1ccc(/C=N/NC(=O)CCCCC(=O)NO)cc1,0.499
CC(C)(C)/C=N/NC(=O)CCCCCCC(=O)Nc1ccccc1O,-0.0571
O=C1c2ccccc2[C@@]2(Cc3ccccc3N(CCN3CCOCC3)C2=O)[C@H](c2ccc(CO)cc2)N1Cc1ccccc1Cl,0.189
COC(=O)CCCCCCC(=O)N/N=C/C1=CC[C@H]2C[C@@H]1C2(C)C,0.558

# Ordered by value in YB-1 expression (rising): 4 from the list above
SMILES,YB-1 expression
COC(=O)CCCCCCC(=O)N/N=C/c1ccc(OC)cc1OC,-0.14
C[C@H]1CN([C@@H](C)CO)C(=O)CCCn2nncc2CO[C@H]1CN(C)C(=O)Nc1ccc(-c2cccs2)cc1,-0.0451
C=CCN1C(=O)[C@@]2(O[C@@H](CCn3cc(CCO)nn3)[C@H]([Si](C)(C)c3ccc(OC)cc3)[C@H]2C)c2cc(NC(=O)c3ccc(OC)cc3)ccc21,0.143
COC(=O)CCCCCCC(=O)N/N=C/C1=CC[C@H]2C[C@@H]1C2(C)C,0.558

# (list continues)
SMILES,YB-1 expression
C=CCC/C=N/NC(=O)CCCCCCC(=O)O,-0.295
C[C@@H]1CN([C@H](C)CO)C(=O)CCCn2cc(nn2)CO[C@H]1CN(C)S(=O)(=O)c1ccccc1,0.00406
O=C1c2ccccc2[C@](Cc2ccccc2I)(C(=O)O)[C@H](c2ccc(CO)cc2)N1C1CCCCC1,-0.515
C[C@H](CO)N1C[C@H](C)[C@@H](CN(C)S(=O)(=O)c2ccc3c(c2)OCCCO3)OCc2cn(nn2)CCCC1=O,-0.0486
C[C@]1(C(=O)NC2CC2)c2ccccc2C(=O)N(Cc2cc(C(F)(F)F)cc(C(F)(F)F)c2)[C@H]1c1ccc(CO)cc1,0.0902
O=C(O)CCCCCC(=O)N/N=C/c1ccco1,0.15
C[C@@H]1CN([C@@H](C)CO)C(=O)CCCn2nncc2CO[C@@H]1CN(C)C(=O)CCCN(C)C,-0.587
CC(C)(C)OC(=O)NC1(/C=N/NC(=O)CCCCCCC(=O)O)CCCC1,-0.011
COc1ccc(-c2cnc3c(c2)C(=O)N([C@H](C)CO)C[C@H](C)[C@H](CN(C)Cc2cccc(C)c2)O3)cc1,-0.433
CC(C)NC(=O)Nc1ccc2c(c1)C(=O)N([C@@H](C)CO)C[C@H](C)[C@H](CN(C)Cc1ccc(C(=O)Nc3ccccc3N)cc1)O2,1.32

# 2 entries picked at random from those above, as already listed:
SMILES,YB-1 expression
C[C@@H]1CN([C@H](C)CO)C(=O)CCCn2cc(nn2)CO[C@H]1CN(C)S(=O)(=O)c1ccccc1,0.00406
COc1ccc(-c2cnc3c(c2)C(=O)N([C@H](C)CO)C[C@H](C)[C@H](CN(C)Cc2cccc(C)c2)O3)cc1,-0.433

# (cont.)
SMILES,YB-1 expression
C[C@H](CO)N1C[C@H](C)[C@@H](CN(C)S(=O)(=O)c2cccs2)OCc2cnnn2CCCC1=O,-0.362
COc1cccc(OC)c1/C=N/NC(=O)CCCCCCC(=O)Nc1ccccc1O,-0.22
C[C@H](CO)N1C[C@H](C)[C@H](CN(C)S(=O)(=O)c2cccs2)Oc2ncc(-c3cc4ccccc4o3)cc2C1=O,-0.417
COc1ccc([Si](C)(C)[C@H]2[C@H](CC(=O)N(CCO)Cc3ccccc3)O[C@@]3(C(=O)N(C)c4ccccc43)[C@@H]2C)cc1,0.0564
C[C@H](CO)N1C[C@H](C)[C@H](CN(C)C(=O)Nc2ccc3c(c2)OCO3)Oc2ncc(-c3cccc(F)c3)cc2C1=O,0.277
C=C[C@@H](OC)[C@H](OC(=O)Nc1ccc(SC)cc1)c1ccc(OCCO)cc1,0.155
COc1ccc(/C=N/NC(=O)CCCCCC(=O)Nc2ccccc2O)c(OC)c1,-0.519
COc1cccc(S(=O)(=O)N(C)C[C@@H]2Oc3ncc(-c4cccc(C(F)(F)F)c4)cc3C(=O)N([C@H](C)CO)C[C@@H]2C)c1,-0.0142
C[C@@H]1CN([C@@H](C)CO)C(=O)CCCn2nncc2CO[C@H]1CN(C)CC1CC1,-0.716
O=C(N/N=C/c1ccc(-c2cccc(Cl)c2)o1)c1ccccn1,0.0669
C[C@@H]1CN([C@@H](C)CO)C(=O)CCCn2cc(nn2)CO[C@H]1CN(C)C(=O)C1CCCCC1,0.579
C[C@@H]1CN([C@@H](C)CO)C(=O)CCCn2cc(nn2)CO[C@@H]1CN(C)Cc1cccc(O)c1,0.52
C[C@@H]1CN([C@H](C)CO)C(=O)CCCn2cc(nn2)CO[C@H]1CN(C)C(=O)OCc1ccccc1,-0.506

# In the list so far, these have two or more sulfur atoms:
SMILES,YB-1 expression
C[C@H](CO)N1C[C@H](C)[C@@H](CN(C)S(=O)(=O)c2cccs2)OCc2cnnn2CCCC1=O,-0.362
C[C@H](CO)N1C[C@H](C)[C@H](CN(C)S(=O)(=O)c2cccs2)Oc2ncc(-c3cc4ccccc4o3)cc2C1=O,-0.417
